MgrA-DNA mod – alters Staphylococcus aureus MgrA binding to DNA; 84,000 tested, 0.13% active; fluorescence polarization; inhibition, %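 (about 10 µg/mL by stock and volumes)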; AID 602314;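 active = above 50% in either of two replicates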;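 note: 0% = protein plus DNA without compound and 100% = DNA alone without protein; higher means less MgrA bound to DNA so lower polarization; one replicate is shown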
Sa helicase inh – S. aureus DNA helicase inhibition | 120,000 tested, 0.05% active | inhibition, %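 (tested at about 80 µM)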 | purified S. aureus helicase, fluorescence unwinding assay; about half of the hits fall short of the stated cut;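 active = both duplicates at 50% or more, or one of them with a favoured structure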;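 note: 0% = mean of negative control wells and 100% = mean of positive control wells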
Active calls of the source: *; x = no result given; & = joins results of further samples. This is a subset, so the mix of outcomes need not match the whole.

SMILES	MgrA-DNA mod	Sa helicase inh
CCOc1ccc(NC(=O)CN(C)CC(=O)NC2CCCc3ccccc32)cc1OCC (stereo not drawn)	x	2.0
O=S(=O)(NCCN1CCOCC1)c1cccc(C(F)(F)F)c1	-1.4	2.0
NNC(=O)c1cc(N)c(=O)[nH]n1	x	-4.0
CC(=O)NCCc1nc2ccccc2n1Cc1ccc(C(C)C)cc1	0.2	5.0
O=C(COC(=O)c1ccncc1)NC12CC3CC(CC(C3)C1)C2	x	-5.0
O=C(O)c1c(-c2cccs2)nnc2ccccc12	7.3	x
CNC[C@H](O)c1cccc(O)c1	-0.2	x
O=C(OCC(=O)N1CCc2ccccc2C1)c1cccs1	-0.8	0.0
CNS(=O)(=O)c1ccccc1C(=O)N/N=C/c1ccc(OC)c(OC)c1	-2.1	5.0
Cc1nccc2[nH]c(=O)c(C(=O)NCCc3ccc(Cl)cc3)cc12	x	4.0

Rewritten with values under each structure: 2 of the compounds above
Results follow in this order: MgrA-DNA mod, Sa helicase inh
O=C(O)c1c(-c2cccs2)nnc2ccccc12
 : 7.3, x
CNC[C@H](O)c1cccc(O)c1
 : -0.2, x

Next part:
SMILES	MgrA-DNA mod	Sa helicase inh
O=C(CCN1C(=O)C2C3C=CC(C3)C2C1=O)Nc1cccc2ccccc12 (stereo not drawn)	-0.1	-3.0
Cc1ccc(Cc2c(C)[nH]c3[nH]n(-c4ccccc4)c(=O)c3c2=O)cc1	2.2	9.0
Cc1ccn(CCC(=O)Nc2nccs2)n1	x	-9.0
CSC(N)=NCc1ccco1	0.7	x
Cn1c(=O)c2c(-c3ccccc3Br)n(C(CO)(CO)CO)cc2n(C)c1=O	x	7.0
CS(=O)(=O)N(CC(=O)Nc1cccc(F)c1)c1cccc(F)c1	-1.8	-2.0
COc1cc(C(=O)Nc2nnc(-c3ccc(Br)cc3)s2)cc(OC)c1OC	2.6	x
COc1ccc(S(=O)(=O)N(CC(=O)NC2CC2)C2CCCCC2)cc1Cl	-2.3	-17.0
O=C(CSc1nc2ccccc2o1)N1CCNC1=O	-1.0	15.0
Cn1c(SCc2cc(=O)[nH]c3ccccc23)nc2ccccc2c1=O	0.3	13.0
CCOC(=O)c1c(C)n(-c2cccc(C)c2)c2ccc(O)cc12	-2.2	-5.0
Cn1c(SCC(=O)N=S(C)(=O)c2ccc(Cl)cc2)nnc1C(F)(F)F (stereo not drawn)	-1.6	x
O=C(CN1CCC(c2nc3ccccc3s2)CC1)N(C1CCCCC1)C1CCS(=O)(=O)C1 (stereo not drawn)	x	1.0
Cc1ccc2nc(SCN3C(=O)c4ccccc4C3=O)[nH]c2c1	x	-3.0
CN(C)CCCNc1nc2ccccc2nc1NS(=O)(=O)c1ccc(Cl)cc1	x	-14.0
Cc1nc2c(c(C)nn2C(C)(C)C)c(C)c1CCC(=O)N1CCCCCC1	x	7.0
CC(C)NC(=O)Nc1ccccc1C(=O)O	x	-6.0
CNC(=S)N1CCN(c2ccccc2OC)CC1	-1.3	x
CCCNC(=O)Nc1cccc(CC)c1	6.6	9.0
COc1ccc(N2CCN(C(=O)c3ccc(C#CC4(O)CCCCC4)cc3)CC2)cc1	-2.8	11.0
COc1ccc(CNc2ncn[nH]2)cc1OC	1.2	6.0
Cc1nc(Nc2ccccc2)nc(Nc2ccccc2)c1[N+](=O)[O-]	-0.3	x
COCc1cc(C)nc2sc3c(=O)n(Cc4ccccc4)nnc3c12	-0.9	-3.0
CCC(Cc1cccc(O)c1)C(=O)O (stereo not drawn)	-1.1	4.0
Cc1csc(C(C(=O)O)c2ccccc2)n1 (stereo not drawn)	-0.1	1.0
O=c1[nH]c2ccc(S(=O)(=O)N3CCCC3)cc2s1	3.9	3.0
O=C1c2ccccc2C2(c3cc(C(F)(F)F)cc(C(F)(F)F)c3)NCCN12 (stereo not drawn)	-0.1	x
Cn1cccc1C(=O)OCc1ccc(C(C)(C)C)cc1	x	2.0
O=C(NC1Cc2ccccc2C1)c1cncc(Br)c1	-1.1	x
Cc1ccc(Oc2cccc(F)c2C#N)cc1	-2.7	x
FC(F)(F)c1cccc(NC(=S)N2CCn3cccc3C2c2cccnc2)c1 (stereo not drawn)	-0.4	8.0
FC(F)(F)c1cc(-c2ccccc2)nc(N2CCCC2)n1	-1.5	3.0
O=C(CSc1c(-c2ccccc2)c2cc(Cl)ccc2[nH]c1=O)N1CCN(C(=O)c2ccco2)CC1	x	-17.0
COc1cc(C(=O)Oc2ccc(Cl)c3cccnc23)cc(OC)c1OC	0.8	-18.0
CCN(CC)C(=O)C1CCN(S(=O)(=O)c2ccc(C)cc2)CC1	-17.4	-3.0
c1ccc(CCN2CN(Cc3ccccc3)c3nc4ccccc4n3C2)cc1	x	-8.0
CCOC(=O)N1CCC(Nc2nc(N3CCCC3)nc(N3CCCC3)n2)CC1	x	5.0
NNc1nc(-c2ccccc2)cc(-c2ccc(Br)cc2)n1	-0.2	11.0
COc1ccc(-c2nc3c4cnn(-c5cccc(C)c5)c4ncn3n2)cc1	1.1	21.0
COc1cccc2c1c(NC(=O)c1cc3ccccc3s1)nn2C	4.5	x
C=CCC(N)(CC=C)c1ccc(C)cc1	-2.1	17.0
O=C(OCC(=O)N1CCCCC1)c1ccc(-c2nc3ccccc3s2)s1	x	3.0
Cc1cc(/C=C2/NC(=O)N(Cc3ccccc3F)C2=O)c(C)n1C	x	-11.0
COc1ccc(/C=C2\SC(=O)N(CCNC(=O)[C@@H]3CCCN3C(=O)OC(C)(C)C)C2=O)cc1	x	8.0
COC(=O)CSc1ncnc2c(C)csc12	-2.8	x
Cc1cc2c(cc1S(=O)(=O)N1CCOCC1)n(C)c(=O)c(=O)n2C	x	17.0
COc1ccc(NC(=O)COc2cccc(Oc3ccccc3)c2)cc1	x	14.0
O=C(CCS(=O)(=O)c1cc(Br)cc2c1N(C(=O)C1CC1)CC2)N1CCCCCC1	x	10.0
O=C(c1sc2cc([N+](=O)[O-])ccc2c1Cl)N1c2ccccc2CCc2ccccc21	2.2	x
c1ccc(Cc2ccccc2-c2nnc(-c3cccnc3)o2)cc1	x	-8.0

Other records
SMILES	MgrA-DNA mod	Sa helicase inh
CN1C(=O)CS/C1=N/N=C/c1cn(-c2ccccc2)nc1-c1ccccc1	x	-13.0
O=C(NCCc1ccccc1)c1cnn2cccnc12	0.4	9.0
CN1CCN(c2ncnc3c2cnn3-c2ccccc2)CC1	-0.9	8.0
Cc1cccc(NC(=O)Cn2c(=O)n(CCC(=O)NCc3ccco3)c(=O)c3ccccc32)c1	-1.8	12.0
COc1cccc(/C=C/C(=O)OCC(=O)Nc2ccccc2)c1	-0.3	-7.0
Cc1ccc2c(cnn2C(=O)CCC(=O)NCc2ccccc2)c1	x	-6.0
Cn1c(CCCNC(=O)Cc2ccccc2)nc2ccccc21	x	-11.0
O=C(OC1(C(F)(F)F)C(=O)Nc2cc3c(cc21)OCCO3)c1ccc(S(=O)(=O)N2CCCCCC2)cc1 (stereo not drawn)	x	11.0
Cc1nc(-c2cccc(Cl)c2)cs1	x	-13.0
CCOC(=O)c1sc(N)c(C#N)c1CSc1ncnc2sc3c(c12)CCC3	x	-7.0
COc1cc2ncc(S(=O)(=O)c3ccccc3)c(N3CCN(c4ccccc4F)CC3)c2cc1OC	x	-4.0
CS(=O)(=O)c1nsc(S(C)(=O)=O)c1C#N	x	7.0
CCn1c(Cn2nc(C(=O)O)c3ccccc3c2=O)nc2cc(S(=O)(=O)N(C)C)ccc21	x	5.0
COc1ccc(CCN(C)CC(=O)Nc2c(C)cc(C)cc2C)cc1OC	x	9.0
C#CC(CC)(CC)NC(=O)COc1ccccc1Cl	x	7.0
CC(=O)Nc1ccc(OCC(O)Cn2cnc3ccccc32)cc1 (stereo not drawn)	x	-21.0
Clc1ccc2nonc2c1	-0.5	x
CC(C(=O)O)N1C(=O)/C(=C/c2ccccc2)SC1=S (stereo not drawn)	2.8	x
CC1(C)Cc2ccccc2C(=NCC(=O)O)N1	1.6	7.0
COCCn1c(=C(C#N)C#N)s/c(=C/c2ccc(C)s2)c1=O	x	-242.0
C(=N\n1nnnc1Nc1ccccc1)/c1ccc(OCc2ccccc2)cc1	-1.4	1.0
COc1ccc(N2CCN(C(=O)CCS(=O)(=O)c3ccc4c(c3)NC(=O)CO4)CC2)cc1	x	-18.0
O=C(Nc1ccccc1)c1ccc(N2C(=O)CCC2=O)cc1	0.7	11.0
CCCSc1ncccc1C(=O)Nc1cccc2nonc12	0.7	x
Cc1cc(C)c2cc(C(=O)N3CCC(N4CCCCC4)CC3)[nH]c2c1	-0.4	x
Cc1ccc(NC(=O)NCC2CN(CC(C)C)CCO2)cc1 (stereo not drawn)	x	8.0
O=C(ON1C(=O)c2cccc3cccc(c23)C1=O)c1ccncc1	5.2	2.0
CCC(C)NC(=O)Cc1ccc(OC)cc1 (stereo not drawn)	-1.2	1.0
Cn1cc(S(=O)(=O)N2CCCC2)cc1C(=O)N1CCc2ccccc2C1	0.0	1.0
Cc1ccc2c(c1)NC(c1cc(Cl)cc(Cl)c1O)c1cccn1-2 (stereo not drawn)	0.6	x

Quoted at random: seven compounds from above
SMILES	MgrA-DNA mod	Sa helicase inh
CCOC(=O)c1sc(N)c(C#N)c1CSc1ncnc2sc3c(c12)CCC3	x	-7.0
COc1ccc(NC(=O)COc2cccc(Oc3ccccc3)c2)cc1	x	14.0
COc1ccc(CNc2ncn[nH]2)cc1OC	1.2	6.0
Cn1cccc1C(=O)OCc1ccc(C(C)(C)C)cc1	x	2.0
CS(=O)(=O)N(CC(=O)Nc1cccc(F)c1)c1cccc(F)c1	-1.8	-2.0
CC1(C)Cc2ccccc2C(=NCC(=O)O)N1	1.6	7.0
CN1C(=O)CS/C1=N/N=C/c1cn(-c2ccccc2)nc1-c1ccccc1	x	-13.0

(continued)
SMILES	MgrA-DNA mod	Sa helicase inh
Cc1ccccc1/C=C1\Cc2ccccc2C1=O	-1.8	-4.0
Cc1ccc(S(=O)(=O)N2CCCC2)c(C)c1	-1.5	8.0
CCCn1c(=O)c(/C(N)=N/O)nn(-c2ccccc2)c1=O	-1.9	x
O=C(CCc1nnc2ccc(NCc3ccccc3)nn12)NCc1cccnc1	x	1.0
O=C(O)COCC(=O)Nc1cnccn1	-0.2	x
Cc1cc(C)n(CC(=O)NC23CC4CC(CC(C4)C2)C3)c(=O)c1C#N	-4.5	1.0
COc1ccc(CNC(=O)c2n[nH]c(=O)c3ccccc23)cc1OC	x	12.0
O=C1CCCCC1Sc1nnc(C2CC2)n1Cc1ccccc1 (stereo not drawn)	x	-4.0
Nc1c(-c2ccccc2)c(-c2ccccc2)nn1Cc1ccccc1	x	15.0
CCNc1ccc(S(=O)(=O)C(F)(F)F)cc1N	-3.5	-19.0
Cc1ccc(/C=C2\CCC/C(=C\c3ccc(C)s3)C2=O)s1	x	-42.0
CC1CCc2c(sc3ncnc(NCCOCCO)c23)C1 (stereo not drawn)	3.4	11.0
COc1ccc(C)cc1-n1c(=O)c2ccccc2n2c(SCc3cc(=O)n4c(C)csc4n3)nnc12	x	18.0
CCCOc1ccc(-c2nc(N(CC)CC)c3ccccc3n2)cc1	-1.9	14.0
Cc1nc2ccccc2c2oc(C(=O)N3CCc4ccccc43)cc12	x	9.0
O=C(CCSc1ccccc1)NCc1cccnc1	x	-5.0
Cc1ccc(Cn2c(C)c3cnn(CC(=O)NC(C)c4ccc5c(c4)OCCO5)c(=O)c3c2C)cc1 (stereo not drawn)	x	1.0
C#C[C@]1(O)CCC2C3CCC4=CC(=O)CC[C@@H]4C3CC[C@@]21C (stereo partly drawn)	7.5	x
CCc1c(C(=O)OC)c2cc(NS(C)(=O)=O)ccc2n1S(C)(=O)=O	0.6	-9.0
CC(C)Oc1ccc(Cl)nn1	x	-2.0
O=C1C=CC(=O)N1c1ccccc1Sc1ccccc1	2.5	7.0
Cc1c(-c2ccnn2C(=O)c2cccs2)cnn1-c1ccccc1	-2.0	x
Cn1c2c(c3ccccc31)C(C)(C)Cc1c-2cnn1-c1ccccc1	0.6	9.0
COc1ccccc1-n1c(C)nc(=O)c(-c2ccccc2)c1C	1.8	5.0
COc1ccc(Cl)cc1N(CC(=O)N1CCC(C)CC1)S(=O)(=O)c1ccc(C)c([N+](=O)[O-])c1	3.5	x
COc1cc(=O)[nH]c(SCC(=O)Nc2ccc(Br)cn2)n1	-3.1	11.0
CC(C)(C)n1ncc(C(=O)O)c1C(F)(F)F	-2.2	x
CCC(=O)N(c1nnc(SC(C)C(=O)c2ccc(NS(C)(=O)=O)cc2)s1)C1CC1 (stereo not drawn)	x	-3.0
COC(=O)C1CCC(C(=O)O)C1(C)C (stereo not drawn)	-0.9	-16.0
O=C1CNC(=O)N1Cc1ccc(F)cc1	1.1	-19.0
CS(=O)(=O)c1ccccc1C(=O)Nc1ccc2sccc2c1	x	13.0
C=C[C@@]1(C)CC(=O)[C@]2(O)[C@@]3(C)[C@H](O)CCC(C)(C)[C@@H]3[C@H](O)[C@H](OC(C)=O)[C@@]2(C)O1	1.0	x
CCc1nn(CC(=O)NCc2cc(Br)ccc2OC)c(=O)c2cc3sc(C)cc3n12	x	12.0
O=C1CCCN1CCCNC(=S)Nc1ccc(Nc2ccccc2)cc1	1.6	5.0
CCC1(c2ccccc2)C(=O)NCNC1=O	-0.1&-0.6	x
COc1ccc(N2CCN(C(=O)C3CCN(C(=O)c4cc5sccc5n4C)CC3)CC2)cc1	x	16.0
COc1ccc(-c2cccc(NC(=O)C(F)(F)F)c2)nn1	x	2.0
Sc1ccc2ccccc2c1	x	-4.0
CCOC(=O)c1cncc(C#CCOC(=O)c2ccc(Cl)cc2)c1	-2.5	x
CC1CCN(C(=O)COC(=O)c2ccc(Br)o2)CC1	-0.6	13.0
O=C(NCCN1CCOCC1)N1CCNC1=O	-3.0	13.0
CC(CN1CCNCC1)(NS(=O)(=O)c1ccccc1)c1ccccc1 (stereo not drawn)	3.5	16.0
